Vaccinia pol inh: vaccinia E9 polymerase processive synthesis inhibition. in vitro processive DNA synthesis, absorbance read-out; hits give low values; some inactives read as strong as hits. normalized absorbance, % (test concentration not listed). 0.94% of 46,000 active. AID 493162;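 active = replicate mean up to 90% and picked by the depositor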;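 note: 100% = median of the test wells of a plate; 100 nL library stock went into each well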
* hit, by the source's call. The list is partial; rates above refer to the full screens.

Compound,Vaccinia pol inh
Cn1c(=O)n(Cc2ccccc2)c(=O)c2c1nc(Cl)n2Cc1ccccc1,100
Cn1nccc1NC(=O)COCC(=O)O,99
CCN(Cc1ccccc1)C(=O)CSc1nc(C)cc2c1C(=O)OC2,103
Nc1[nH]ncc1-c1ccc(Cl)cc1,96
CCOC(=O)N1CCN(C(=O)CSc2nnc(Cc3cccn3C)n2-c2ccc(F)cc2)CC1,101
COc1ccc(OCC(=O)Nc2ncccn2)cc1,108
CSc1nc(COc2ccc(C(C)(C)C)cc2)nc(N)c1C#N,100
Cc1ccc(-n2ncc3c(NCc4ccco4)ncnc32)c(C)c1,98
CCOC(=O)c1c[nH]c2c(C)c(Cl)ccc2c1=O,100
O=C(CC(c1ccco1)S(=O)(=O)c1ccccc1)c1ccc(Cl)cc1 (stereo unspecified),100

(next part)
Compound,Vaccinia pol inh
O=C(c1ccc(Oc2ccccc2)cc1)N1CCN(c2ccccn2)CC1,97
CCOC(=O)c1cc(Oc2nc(C)nc3sc4c(c23)CCCC4)cc(C(=O)OCC)c1,100
O=C(c1ccc(-n2ccnc2)cc1)c1ccc(-n2ccnc2)cc1,92
Cc1cc2nnc(SCC(=O)N(C)C)n2c2ccccc12,97
Cc1cc(-c2nnco2)c(C)n1-c1ccccc1,104
CCCn1c(CCCNC(=O)C(C)(C)C)nc2ccccc21,98
N#CC(c1ccc(C(=O)c2ccccc2)cc1)c1cccs1 (stereo unspecified),92
COc1ccc2[nH]c(C)cc(=S)c2c1,99
O=C(c1ccccc1)c1cnc(-c2ccccc2)s1,92
Cc1cc2cc(CNC(=O)c3ccc4c(c3)OCO4)ccc2n1C,98

Next part
Compound,Vaccinia pol inh
CC(C)(CC(=O)NC1CCN(Cc2ccccc2)CC1)Sc1ccc(Cl)cc1,96
O=C(/C=C/c1ccccc1)Nc1nc(-c2ccc3c(c2)OCCO3)cs1,111
C(=Nn1cncn1)c1ccc(N2CCOCC2)cc1,99
CCCSC1=C(C#N)C(c2cc(OC)ccc2OC)CC(=O)N1 (stereo unspecified),93
CCOc1ccc2c(c1)sc1c(C)cc(=O)oc12,97
Cc1ccc2nc(CCCC(=O)O)[nH]c2c1,98
CCSc1nnc(NC(=O)CSc2nccn2-c2ccccc2)s1,100
CSc1ncc(Cl)c(C(=O)N(Cc2ccccc2)c2ccccn2)n1,106
Cc1ccccc1C(OCCN(C)C)c1ccccc1 (stereo unspecified),100
O=C1NCCN1Cc1ccccc1,93

Following part.
Compound,Vaccinia pol inh
O=C(NC1CCCCC1)C1c2cccn2CC(=O)N1CCCN1CCCC1=O (stereo unspecified),101
COc1ccccc1CNC(=O)c1nnc(Cc2ccc(F)cc2)o1,100
COc1ccc2nc3[nH]nc(NC(=O)Cc4ccccc4OC)c3cc2c1,102
O=C(Cc1ccc(F)cc1)Oc1ccccc1F,102
CC1CC(C)CN(S(=O)(=O)c2ccc(F)c(F)c2)C1 (stereo unspecified),96
COC(=O)C1=C(C)N(c2ccccc2F)C(=O)/C1=C\c1cccc(OC)c1O,100
CCC(C)NC(=O)c1ccc2c(c1)N=C(C)c1cc(Cl)ccc1S2 (stereo unspecified),97
Cc1nc2c(ccc3nc(NC(=O)C4CC4)sc32)s1,86
COc1ccc(-c2noc(CC(=O)O)c2-c2ccc(OC)cc2)cc1,98
CC(=O)N1CCOc2cc(S(=O)(=O)N(C)C3CCCC(C)C3C)ccc21 (stereo unspecified),94

Pulled one by one from above (10):
Compound,Vaccinia pol inh
CCC(C)NC(=O)c1ccc2c(c1)N=C(C)c1cc(Cl)ccc1S2 (stereo unspecified),97
Cc1ccc(-n2ncc3c(NCc4ccco4)ncnc32)c(C)c1,98
Cc1ccccc1C(OCCN(C)C)c1ccccc1 (stereo unspecified),100
CCOc1ccc2c(c1)sc1c(C)cc(=O)oc12,97
CCOC(=O)c1cc(Oc2nc(C)nc3sc4c(c23)CCCC4)cc(C(=O)OCC)c1,100
CC1CC(C)CN(S(=O)(=O)c2ccc(F)c(F)c2)C1 (stereo unspecified),96
O=C1NCCN1Cc1ccccc1,93
Cc1nc2c(ccc3nc(NC(=O)C4CC4)sc32)s1,86
N#CC(c1ccc(C(=O)c2ccccc2)cc1)c1cccs1 (stereo unspecified),92
C(=Nn1cncn1)c1ccc(N2CCOCC2)cc1,99

Continued:
Compound,Vaccinia pol inh
CCOC(=O)c1sc(SC)nc1NS(=O)(=O)c1cc(C(F)(F)F)cc(C(F)(F)F)c1,92
Cc1cccc(CN2C(=O)CSc3ccc(C(=O)NCc4c(F)cc(F)cc4F)cc32)c1,97
COc1ccccc1N(CC(O)CN1CCCCC1)S(=O)(=O)c1ccccc1 (stereo unspecified),97
O=C(CSc1ncn[nH]1)NC1CCCCC1,104
Cc1nc(SCC(=O)Nc2ccc(-c3ccccc3)cc2)c2c3c(sc2n1)CCC3,100
CCSC(=S)c1c(C)[nH]n(-c2ccccc2)c1=O,85
COc1ccc(OCC(=O)O)cc1,100
FC(F)(F)c1[nH]nc(-c2ccccc2)c1C12CC3CC(CC(C3)C1)C2,100
Oc1ccc(Br)cc1C=NCc1ccccc1,98
Cc1noc(C)c1S(=O)(=O)NC(C)c1ccccc1 (stereo unspecified),106

(listing goes on)
Compound,Vaccinia pol inh
O=C(Oc1ccc(C=Nc2cccc(Br)c2)cc1)c1ccccn1,93
O=C1C(=Cc2ccccc2)C(=O)N(c2ccccc2)C(=O)N1c1ccccc1,99
COC(=O)c1nnc(Nc2ccc(Oc3ccccc3)cc2)c2ccccc12,100
Oc1oc(-c2ccccc2)cc1C=Nc1ccccc1,100
NS(=O)(=O)c1ccc(N2C(=O)/C(=C\C=C\c3ccccc3)SC2=S)cc1,99
CC(=O)Oc1ccccc1C(=O)N1CCc2ccccc21,100
Cc1ccccc1/[N+]([O-])=C/c1ccncc1,98
Fc1ccc2nc(Nc3nc4ccc(F)cc4s3)sc2c1,96
Cc1ccc(N2CSCC2=O)cc1,107
CN(/C=C/C=[N+](C)c1ccccc1)c1ccccc1,92

Going on with the list.
Compound,Vaccinia pol inh
C=CCN(CC=C)S(=O)(=O)c1ccc(C(=O)N2CCCC2)cc1,90
CCSc1nnc(CNC(=O)c2cccc(OC)c2)n1-c1ccc(F)cc1,98
OC(CN(Cc1ccccc1)Cc1ccccc1)Cn1c2ccccc2c2ccccc21 (stereo unspecified),101
O=C1N=C(c2cccc(O)c2)c2ccccc2Nc2ccccc21,95
CC(C)c1ccc(N2C(=O)CSCC2(C(=O)NC2CCCCC2)c2ccc(Cl)cc2)cc1 (stereo unspecified),103
O=C(Cc1ccccc1)Sc1ccccc1C(=O)O,96
CCN1CCN(c2nc(-c3cccc(Cl)c3)c3c(n2)-c2ccccc2OC3)CC1,95
CCCc1[nH]c(Br)nc1-c1ccccc1,100
O=C(c1ccc2ccccc2n1)N1CCN(c2ccccc2O)CC1,102
COc1ccc(N(C)C(=O)c2cc3c(=O)oc4ccccc4c3s2)cc1,108

(listing goes on)
Compound,Vaccinia pol inh
CN(CC(=O)N1CCc2ccccc2C1)S(=O)(=O)c1ccc(Cl)cc1,100
CCCc1[nH]nc2c1C(CCc1ccccc1)C(C#N)=C(N)O2 (stereo unspecified),100
CC1(C)Cc2ccccc2C(Nc2nc(-c3ccccc3)cs2)=N1,100
Cc1nc(-c2ccc(S(=O)(=O)N3CCCc4ccccc43)s2)cs1,95
O=C(c1ccccc1)N1CCCc2ccccc21,98
COc1ccccc1N1C(=O)S/C(=C\c2ccccc2)C1=O,100
CNC(=O)C12CC3CCC(CC(C3)C1)C2,95
COc1ccc(-c2nnc(SCC(=O)c3ccccc3)n2C)cc1OC,130
COc1ccc(Cl)cc1C(=O)Nc1nnc(SCC(=O)c2ccccc2)s1,101
CCc1ccc2[nH]c(=O)c(C(c3nnnn3C(C)(C)C)N3CCN(C(=O)c4ccco4)CC3)cc2c1 (stereo unspecified),100

The list continues:
Compound,Vaccinia pol inh
Cn1c(=NC(=O)c2ccc(S(=O)(=O)N3CCCCC3)cc2)sc2c3ccccc3ccc21,99
CC(C)OC(=O)c1cc2ccccc2c(=O)s1,111
CC1(C)OC(=O)C(=Cc2ccccc2F)C(=O)O1,100
CC1CN=C(N(C(=O)Nc2cccc(Cl)c2)C2CCCCC2)S1 (stereo unspecified),101
CC(=O)Nc1ccc(N2S(=O)(=O)c3ccccc3S2(=O)=O)cc1,99
CN(C)C(=S)SCC(=O)c1ccc(Cl)cc1,98
COc1ccc(-c2cc3nc(C)c(CCC(=O)NC(C)c4cccs4)c(C)n3n2)c(OC)c1 (stereo unspecified),105
CC(C)OC(=O)CN1C(=O)c2ccc(C(=O)OC(C)C)cc2C1=O,100
CN1CCC(N(C)C(=O)CSc2ccc3ccccc3c2)CC1,94
CN(C)c1ccc(/C=C(\C#N)C(N)=C(C#N)C#N)cc1,99

(continued)
Compound,Vaccinia pol inh
O=C(Cc1ccccc1)Nn1c(SCC(=O)c2ccccc2)nc2ccccc2c1=O,102
O=C(NC1CCCCC1)c1ccc2c(Cl)c3c(nc2c1)CCCC3,104
CC(=O)N1C(=O)/C(=C\c2cccnc2)NC1=S,100
O/N=C(\c1ccccc1)C1CC2CCC1CC2 (stereo unspecified),88
O=C(OCc1ccc2c(c1)OCO2)c1ccccc1Br,99
C=CCOc1c(Br)cc(Br)c2cccnc12,88
CCc1ccc(NC2SC(=O)N(c3ccccc3)C2=O)cc1 (stereo unspecified),100
Cc1ccn2cc(-c3cccc(NS(=O)(=O)c4cc(C)c(C)cc4C)c3)nc2c1,108
O=S(=O)(NCC1CCCO1)c1ccc2oc3ccc(S(=O)(=O)NCC4CCCO4)cc3c2c1 (stereo unspecified),99
CC(C)N(C(=O)CSc1ncnc2ccccc12)c1ccccc1,99

By substructure: those above containing a CF3 group (2)
Compound,Vaccinia pol inh
CCOC(=O)c1sc(SC)nc1NS(=O)(=O)c1cc(C(F)(F)F)cc(C(F)(F)F)c1,92
FC(F)(F)c1[nH]nc(-c2ccccc2)c1C12CC3CC(CC(C3)C1)C2,100

(more compounds)
Compound,Vaccinia pol inh
CN(C)S(=O)(=O)Nc1ccc(Oc2ccccc2)cc1,100
CC1Cc2ccccc2N1S(=O)(=O)c1ccc2c(c1)n(C)c(=O)c(=O)n2C (stereo unspecified),100
CN(CCC#N)C(=S)Nc1ccc(F)cc1,103
CC(=O)N1N=C(c2ccc(C(C)(C)C)cc2)OC1(C)C,100
O=C(CSc1ncnc2c1nnn2Cc1ccc(F)cc1)c1ccccc1,91
Cc1ccc(CNC(=O)c2cccnc2Sc2cccc(C(F)(F)F)c2)cc1,101
CN(C)c1oc(-c2ccc(Cl)cc2)nc1C#N,100
O=C(Nc1nc(-c2cccs2)cs1)c1ccc(Cl)cc1,97
CCN1CCCC1CNC(=O)c1csc2c1CCCCC2 (stereo unspecified),95
CCc1ccc2nc(N(CCN(C)C)C(=O)c3ccc(N(C)C)cc3)sc2c1,100

Continuation.
Compound,Vaccinia pol inh
S=c1nn[nH]n1CCc1ccc(Cl)cc1,101
O=c1oc2ccccc2cc1-c1ccc2c(c1)OCO2,100
COc1ccc(Cn2c(=O)c3[nH]cnc3n(-c3cc(S(C)=O)ccc3C)c2=O)cc1 (stereo unspecified),102
O=C(CCC(=O)N1CCc2ccccc2C1)N1CC=C(c2c[nH]c3ccccc23)CC1,106
Cc1ccc(/C=C/C(=O)Cc2ccccc2)cc1,109
O=C(Nc1ncc(Cc2ccccc2Cl)s1)c1ccco1,91
CCOc1ccc2oc(=O)cc(CN(Cc3ccco3)C3CCCC3)c2c1,93
Cc1ccnc(SCn2c(=S)sc3ccccc32)n1,105
CC(C)Cc1nc2ccccc2n1CC(=O)N(c1ccccc1)C(C)C,102
CC1CCCN(CCCNC(=O)c2nc(-c3cccnc3)no2)C1 (stereo unspecified),106

Further structures.
Compound,Vaccinia pol inh
FC(F)(F)c1ccccc1-n1ccnc1,98
O=C(CSc1ncccn1)NCc1ccc(Cl)cc1,82
CCSC1=C(C#N)C(=O)NC(C(C)C)S1 (stereo unspecified),94
CCOC(=O)c1cc(-c2ccccc2)nn1-c1ccccc1,103
O=C(CCn1c(=O)oc2ccccc21)N1CCCCC1,99
CC(C)(C)NCc1nc(-c2ccccc2)no1,106
COc1ccc(C(=O)n2cnc3ccccc32)cc1Br,85
COC(=O)c1c(-c2ccccc2)csc1NC(=O)CS(=O)(=O)c1ccccc1,95
O=c1[nH]cnc2nc(-c3ccccc3)c(-c3ccccc3)nc12,97
Cc1nc(N2CC(C)OC(C)C2)c2c3c(sc2n1)CCC3 (stereo unspecified),100

Next part
Compound,Vaccinia pol inh
CCOc1ccc2nc(Nc3nc(O)cc(=O)[nH]3)nc(C)c2c1,100
COc1ccc(S(=O)(=O)N(CCc2ccccc2)CC(=O)Nc2cccc(Cl)c2)cc1OC,99
O=C(Nc1ccccc1)Nc1ccccc1C(=O)N1CCOCC1,99
CN(C)/C(=N\S(=O)(=O)c1ccc(F)cc1)c1ccccc1,100
Cc1ccc(-c2csc(NC(=O)C(C)C)n2)cc1,100
Nc1cc(=O)n(Cc2ccccc2)c(=O)n1-c1ccccc1,96
FC(F)(F)c1cc(Cl)c2ncc(-c3ccc(Br)s3)nc2c1,103
O=C(O)CCCOc1ccc(Br)cc1,96
O=C(CN1C(=O)c2ccccc2C1=O)Nc1ncn[nH]1,101
CCCS(=O)(=O)N1CCN(c2ccccc2F)CC1,111

(continued)
Compound,Vaccinia pol inh
CCn1c(-c2ccccc2Cl)nc2ccccc21,87
COC(=O)C1=C(C)N(C)C(=S)NC1c1ccccc1 (stereo unspecified),100
Cc1ccc(-c2nn(-c3ccccc3)cc2/C=N/O)cc1,100
CC(C(=O)c1ccccc1)[n+]1ccc2ccccc2c1 (stereo unspecified),97
CC(C)Cc1ccc(C(C)C(=O)NC(C)C)cc1 (stereo unspecified),100
Oc1ccc(Cl)cc1-c1cc(-c2ccco2)[nH]n1,83
O=C(CSc1nc2ccccc2nc1N1CCCC1)Nc1ccccc1,102

Bioassay records from PubChem BioAssay.
